Mtb H37Rv – M. tuberculosis H37Rv growth inhibitors, H37Rv strain (AID 1626); M. tuberculosis H37Rv growth inhibition; higher % means a stronger effect; one-dose inhibition, % at 10 µM; IC50 in µM for titrated hits; 220,000 tested, 0.95% active;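 active = confirmed in a dose series; inconclusive = inhibition above 80% but not taken into the dose series; inactive = below 80% or under 30% at every dose of the series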;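 also: bacteria incubated seven days before Alamar blue readout; 0% = bacteria only wells and 100% = bacteria with antibiotic wells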
YopH inh – YopH tyrosine phosphatase inhibitors, primary screen, biochemical, fluorescence Ex485/Em525 | YopH tyrosine phosphatase [Yersinia enterocolitica] | inhibition, %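 (about 10 µM by stock and volumes)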 | 140,000 tested, 0.16% active | AID 898, 2007;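 active = inhibition of 50% or more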;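 also: controls were vehicle for no effect and minimum signal wells for full effect; inactives centre near -20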
Mtb betalactam – beta-lactam sensitization of Mtb H37Rv, H37Rv | M. tuberculosis H37Rv growth with meropenem, percent inhibition; hits of this screen are not shown here | AID 434955, 2010 | 330,000 tested, 0.27% active | inhibition, % at 25 µM;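 active = about 74% or more and at least 40 points above the plate without the antibiotic, then above 30% in a dose series; inconclusive = first-round hits that could not be retested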;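 also: growth measured after seven days incubation then overnight dye step; 0% = bacteria only wells and 100% = bacteria with antibiotic; twin plates without the antibiotic show which effects depend on it; some results filed as inactive read as strong as hits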
RecA splice inh – Mtb RecA intein splicing inhibitors, primary screen, biochemical, fluorescence, HTS | cell-free RecA intein splicing | inhibition, %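 (about 9 µM by stock and volumes)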 | 290,000 tested, 0.75% active; in the data active = inhibition above about 30%; inconclusive = no clear call, values can overlap the other calls;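 also: 0% = vehicle wells and 100% = reference inhibitor control wells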
Target sequence (P9WHJ3 whole entry, looked up, canonical isoform): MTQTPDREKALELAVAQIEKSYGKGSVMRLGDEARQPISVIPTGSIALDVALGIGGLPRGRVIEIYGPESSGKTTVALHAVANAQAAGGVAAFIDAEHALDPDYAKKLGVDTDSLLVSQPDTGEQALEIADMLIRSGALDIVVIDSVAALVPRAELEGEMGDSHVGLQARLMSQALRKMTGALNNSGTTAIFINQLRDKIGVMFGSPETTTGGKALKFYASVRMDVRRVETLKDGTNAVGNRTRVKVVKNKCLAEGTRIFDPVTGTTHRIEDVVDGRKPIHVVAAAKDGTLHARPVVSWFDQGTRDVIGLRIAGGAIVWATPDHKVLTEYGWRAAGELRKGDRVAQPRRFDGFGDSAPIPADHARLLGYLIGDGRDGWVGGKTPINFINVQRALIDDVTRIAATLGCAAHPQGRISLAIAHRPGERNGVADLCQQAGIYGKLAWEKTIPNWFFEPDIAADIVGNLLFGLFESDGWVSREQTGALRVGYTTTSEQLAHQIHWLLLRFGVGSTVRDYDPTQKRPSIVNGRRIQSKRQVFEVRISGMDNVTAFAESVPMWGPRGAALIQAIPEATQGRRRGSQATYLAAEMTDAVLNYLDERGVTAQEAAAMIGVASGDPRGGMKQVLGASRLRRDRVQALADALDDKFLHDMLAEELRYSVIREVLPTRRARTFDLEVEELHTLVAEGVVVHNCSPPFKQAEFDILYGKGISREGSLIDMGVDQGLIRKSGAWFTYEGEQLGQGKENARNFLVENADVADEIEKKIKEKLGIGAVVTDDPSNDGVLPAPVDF
Arbovirus anti – antivirals against arbovirus infection, primary screen, cell-based, full library, 10K replicate subset; arbovirus infection cell-based antiviral screen; inhibition, % at 10 µM; 200,000 tested, 0.37% active;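 active = inhibition from about 30%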;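 also: bluetongue infection of BSR cells; cell survival read as ATP light after 72 h; 0% = infected wells without compound and 100% = uninfected wells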
Arbovirus anti repeat – second read-out of Arbovirus anti, no call of its own (marks repeat the call); inhibition, %; measured here: 10K subset replicate screen; many hits read low in the repeat;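 first of two repeat runs on a subset; 0% = infected and 100% = uninfected wells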
An asterisk follows results filed as active; u = inconclusive; x = no result given. An excerpt; rates above refer to the full screens.

Start of the data: the first 5 records, to show the layout:
SMILES	Mtb H37Rv	YopH inh	Mtb betalactam	RecA splice inh	Arbovirus anti	others
CC1CCC(NC(=O)C2CCC(CNc3c(N4CCCCC4)c(=O)c3=O)CC2)CC1 (centres undefined)	5%	x	-1	0.1	x
CCOc1cc(/C=N/n2cnnc2)ccc1OCC(=O)Nc1ccccc1OC	4%	-26	0	1.5	1	Arbovirus anti repeat=-2
CC(=O)Oc1ccc(C)cc1-n1nc2ccccc2n1	-13%	-13	4	8.4	3
CCc1ccc(NC(=O)CSc2nc3ccccc3c(=O)n2CCN2CCOCC2)cc1	-4%	-20	10	2.3	-7
CCn1c(COc2ccc3c(c2)CCCC3)nnc1SCC(=O)Nc1ccc(C(=O)OC)cc1	-5%	-20	2	0.1	5

Results, from the start:
SMILES	Mtb H37Rv	YopH inh	Mtb betalactam	RecA splice inh	Arbovirus anti	others
CC1CCC(NC(=O)C2CCC(CNc3c(N4CCCCC4)c(=O)c3=O)CC2)CC1 (centres undefined)	5%	x	-1	0.1	x
CCOc1cc(/C=N/n2cnnc2)ccc1OCC(=O)Nc1ccccc1OC	4%	-26	0	1.5	1	Arbovirus anti repeat=-2
CC(=O)Oc1ccc(C)cc1-n1nc2ccccc2n1	-13%	-13	4	8.4	3
CCc1ccc(NC(=O)CSc2nc3ccccc3c(=O)n2CCN2CCOCC2)cc1	-4%	-20	10	2.3	-7
CCn1c(COc2ccc3c(c2)CCCC3)nnc1SCC(=O)Nc1ccc(C(=O)OC)cc1	-5%	-20	2	0.1	5
Nc1ccccc1Nc1ccncc1[N+](=O)[O-]	-14%	5	2	x	-7
O=C(Nc1cc(=O)[nH]c2nc(-c3ccccc3)nn12)c1ccc(Cl)cc1	-4%	x	7	2.1	x
CCC(c1nnnn1Cc1ccc(OC)cc1)N1CCN(C(=O)c2ccco2)CC1 (centres undefined)	x	x	-1	-1.0	x
Cc1cccc(NS(=O)(=O)c2cc(OCC(N)=O)c(C)cc2Cl)c1	39%	-28	-4	-2.6	8
O=C(NC1CCCCC1)NC1CC2CCC(C1)N2C(=O)NC1CCCCC1 (centres undefined)	0%	-54	x	-1.7	4
CCOc1ccccc1NC(=O)c1cccnc1	-1%	3	-7	-1.4	x
CC1CCCN(CCCCOc2cccc(Br)c2)C1 (centres undefined)	11%	-22	-4	-3.0	-17
COc1ccc(CCC(=O)N2CCCSC2=Nc2ccc(C(C)=O)cc2)cc1	3%	-2	7	0.8	-21
Cc1cc(C(=O)N2CCCC(N3CCN(c4cccc(C(F)(F)F)c4)CC3)C2)nn1C (centres undefined)	x	x	1	-0.3	x
O=C(Nc1ccccc1F)c1ccccc1-c1ccccc1	7%	-28	6	12	0
CC1(C)CC(=O)NC=C(c2ccccc2)C1	-3%	-28	-7	-7.1	12
CCCN1C(=O)C2(SC(NC(C)=O)=NN2C(C)=O)c2cc(C)cc(C)c21 (centres undefined)	-6%	x	-9	-0.4	x
COC(=O)CCCC(=O)N1CCCC(C(=O)c2ccc(-c3ccccc3)cc2)C1 (centres undefined)	x	x	-1	4.3	x
Cc1cc(NC(=O)Nc2ccc3c(ccn3C)c2)sn1	-7%	x	-8	-1.3	x
Cc1c(NC(=O)C(C)OC(=O)C23CC4CC(CC(Br)(C4)C2)C3)c(=O)n(-c2ccccc2)n1C (centres undefined)	3%	x	-4	-0.5	3

For reference, some entries already given:
SMILES	Mtb H37Rv	YopH inh	Mtb betalactam	RecA splice inh	Arbovirus anti	others
CCCN1C(=O)C2(SC(NC(C)=O)=NN2C(C)=O)c2cc(C)cc(C)c21 (centres undefined)	-6%	x	-9	-0.4	x
COC(=O)CCCC(=O)N1CCCC(C(=O)c2ccc(-c3ccccc3)cc2)C1 (centres undefined)	x	x	-1	4.3	x
Cc1cc(NC(=O)Nc2ccc3c(ccn3C)c2)sn1	-7%	x	-8	-1.3	x
Cc1c(NC(=O)C(C)OC(=O)C23CC4CC(CC(Br)(C4)C2)C3)c(=O)n(-c2ccccc2)n1C (centres undefined)	3%	x	-4	-0.5	3

Next part
SMILES	Mtb H37Rv	YopH inh	Mtb betalactam	RecA splice inh	Arbovirus anti	others
C=CCn1c(O)c(N=O)c2cc(C)ccc21	-3%	x	6	-1.6	2
C=C(C)CSc1nnc([C@@H](N)Cc2c[nH]c3ccccc23)o1	1%	-18	u	-0.7	7
COc1ccc2cc(/C(C)=N/NC(=S)Nc3cc(S(=O)(=O)N4CCOCC4)ccc3N3CCOCC3)ccc2c1	2%	x	-4	-0.8	4
COc1ccc(C(c2nnnn2CC2CCCO2)N2CCN(c3ccc(F)cc3)CC2)cc1 (centres undefined)	9%	-34	-2	-3.3	2
Cc1cc(C)n(C(=O)c2cccc([N+](=O)[O-])c2C)n1	x	x	-2	0.5	x
N#Cc1nc(Cc2ccccc2)oc1NCc1cccnc1	0%	-5	-3	1.0	6
CCCCNC(=O)COC(=O)c1c2c(nc3ccccc13)/C(=C/c1cccs1)CC2	37%	-34	24	x	-12
CCC(=O)N1c2ccc(S(=O)(=O)NC3CCCCC3)cc2CC1C (centres undefined)	x	x	-4	2.3	x
COc1ccc(S(=O)(=O)N2CCCCCC2)cc1NC(=O)Cc1ccccc1F	-5%	x	-1	7.7	x
Cc1ccc(-c2csc(Nc3ccccc3)[n+]2CCc2ccccc2)cc1	-2%	x	-3	11	0
O=S(N1CCCCCC1)C12CC3CC(CC(C3)C1)C2 (centres undefined)	-5%	-2	7	-0.1	-3
O=S(=O)(c1cnc[nH]1)N1CCN(C(c2ccc(F)cc2)c2ccc(F)cc2)CC1	x	x	4	0.7	x
CCCC(C(=O)NCc1ccco1)N(Cc1ccco1)C(=O)CNS(=O)(=O)c1ccccc1 (centres undefined)	x	x	-3	0.7	x
O=C(Nc1ccc(C(F)(F)F)cc1)c1ccc2nc[nH]c2c1	1%	-25	0	x	-1
Cc1ccc(CS(=O)(=O)Cc2ccc(C(=O)NCc3cccs3)o2)cc1	4%	x	3	1.4	0
CC(C)[C@H]1C=C(C(=O)O)O[C@@H](OCCCCO)C1	-4%	x	-10	0.2	x
CN(C)c1nc(=NCc2ccco2)ss1	36%	x	46	-2.5	x
Cc1cc(/C=C2\C(=N)N3N=C(CC(=O)N4CCOCC4)SC3=NC2=O)c(C)n1-c1ccccc1	x	x	-3	-27	x
O=C1c2ccccc2C(O)N1CCN1CCOCC1 (centres undefined)	-2%	-11	3	-0.3	10	Arbovirus anti repeat=2
COc1cccc(/C=N/NC(=O)c2c(C)nc3ccc(Br)cn23)c1	2%	x	0	-2.9	1
COc1ccc(-c2csc(N(CCCN3CCOCC3)C(=O)CCl)n2)cc1	x	x	5	1.2	x
Cc1cccc(C)c1-n1ncc(C(=O)NC2CCCC2)c1C1CCNCC1	x	x	3	-0.8	x
COc1cccc(/C=C/c2ccc3cccc(O)c3n2)c1OC	x	x	100	-0.1	x
COCc1cccc(NC(=O)CCc2ccccc2)c1	-1%	x	-1	-1.1	-4
Nc1ccccc1-[n+]1c(-c2ccccc2)cc(-c2ccccc2)cc1-c1ccccc1	79%	x	97	1.9	x
COc1ccc(C(=O)Nc2ccc(N3CCCC3)cc2)cc1OC	x	x	-2	-2.6	x
CC(C)Nc1nc(NC(C)C)nc(OCCOC(=O)Nc2ccccc2)n1	2%	-25	0	4.5	2
Oc1cccc2c(NC(=S)Nc3ccc(OC(F)F)cc3)cccc12	u	-11	-2	18	-44
Cc1ccc(C(C(=O)NC2CCCCC2)N(C(=O)Cc2c[nH]c3ccccc23)c2ccccc2C)o1 (centres undefined)	3%	-4	-6	2.3	-9
CC(=O)c1ccc(N2CCN(C(=O)CCCn3c(=O)[nH]c4ccccc4c3=O)CC2)cc1	-3%	x	13	x	2
O=C(CSc1n[nH]c(-c2ccccc2)n1)NCc1cccc(C(=O)O)c1	-6%	x	-2	-0.4	0
O=C(Nc1cccc(NC(=O)c2ccc3c(c2)OCO3)c1)c1ccccc1	9%	x	-6	-3.2	-8
O=C(NCc1ccco1)c1ccc2c(c1)C(=O)c1ccccc1-2	-7%	33	0	-0.4	1
O=C(CCCOc1ccc(Cl)cc1Cl)N/N=C/c1ccccc1	7%	-20	18	1.1	15
CCOc1ccc2cc(C#N)c(SCC(=O)OC)nc2c1	0%	-54	19	-0.9	0
Cc1cc(C(=O)N/N=C/c2ccc(-c3cccc(Cl)c3)o2)n[nH]1	-4%	x	-2	-1.6	x
O=c1[nH]c2c(s1)C(c1ccco1)C1C3CCC(C3)C1S2 (centres undefined)	-3%	-5	-15	-0.2	7
CC(C)CCNC(=O)C12CN(Cc3ccccc3)CC1C(c1cccc([N+](=O)[O-])c1)=NO2 (centres undefined)	7%	-80	-5	12	-14
Cc1ccc(S(=O)(=O)N2CCN(Cc3ccccc3)CC2)c(C)c1N(C)S(=O)(=O)c1ccccc1	8%	-10	-3	9.2	11
COCCN(C(=O)c1cccc(OC)c1)c1nnc(-c2ccncc2)s1	-2%	-51	-2	0.4	2
CCNc1nc(OC)nc(Oc2ccc(C(=O)OC)cc2)n1	10%	-18	-6	-0.6	1
N#Cc1ccccc1N/C=C/C(=O)c1ccc(Cl)cc1	x	x	10	-0.9	x
N#Cc1cn(CC(=O)N2CCCc3ccccc32)c2ccccc12	0%	-8	-9	3.4	6
COc1ccc(CN2C(=O)c3cccnc3C2=O)cc1S(=O)(=O)NCc1ccc(C)o1	x	x	4	-3.4	x
Cc1cc(OCC(O)CN(C)C(=O)C(C)Oc2ccccc2)ccc1Cl (centres undefined)	x	x	-3	2.1	x
CCCCOc1ccc(/C=N/NC(=O)c2nnn(-c3nonc3N)c2C)cc1	x	x	4	2.1	x
CCOc1ccccc1C(=O)Nc1nnc(Cc2ccc(OC)c(OC)c2)s1	x	x	0	-9.2	x
CCCCN1C(=O)C(=O)N(CC(=O)N2N=C3/C(=C/c4ccco4)CCCC3C2c2ccco2)C1=O (centres undefined)	-3%	x	0	-0.2	-4
CN1CCN(C(=O)C2CCN(c3ncnc4c3nc3n4CCCCC3)CC2)CC1	x	x	-5	0.0	x
CC(=O)NC(NC(=S)Nc1ccc(C)cc1C)C(Cl)(Cl)Cl (centres undefined)	-6%	x	-16	-4.5	x

Other records:
SMILES	Mtb H37Rv	YopH inh	Mtb betalactam	RecA splice inh	Arbovirus anti	others
COc1cccc(CC(=O)Nc2cc(S(=O)(=O)N3CCOCC3)ccc2N2CCOCC2)c1	11%	x	0	-2.2	11
O=C(Nc1ccccc1C(=O)Nc1ccc(Cl)cc1)c1cccnc1	x	x	8	2.3	x
Cc1sc2ncnc(N3CCN(S(=O)(=O)c4ccc(Br)cc4)CC3)c2c1C	x	x	-3	9.9	x
CSc1nc(N)nc(SCCS(=O)(=O)c2ccc(Cl)cc2)c1C#N	-4%	-25	-4	-2.7	-9
Cc1ccc(NC(=O)CCNC(=O)Cn2ccc3ccccc3c2=O)cc1F	x	x	7	-0.8	x
O=C(c1ccc(Cl)cc1)N1CCCCC(Sc2nnc(-c3ccc4c(c3)OCO4)o2)C1=O (centres undefined)	x	-21	-3	3.7	5
CC(C)(C)c1ccc(NC(=O)CNC2CCCc3ccccc32)cc1 (centres undefined)	-1%	x	69	0.4	24
COc1cccc(-c2cc(C(F)(F)F)nc(-n3cc(Cl)cn3)n2)c1	-1%	-2	-4	x	18
COc1ccc(S(=O)(=O)N2CCCC(C(=O)N3CCN(c4ccccc4)CC3)C2)cc1Cl (centres undefined)	x	x	76	4.1	x
O=C(N/N=C/c1cccnc1)c1cc2c(ccc3ccccc32)o1	x	-22	5	-13	-6
Cn1cc(C(=O)c2cccc(Cl)c2Cl)cc1C#N	-3%	x	-8	2.3	5
O=C(Nc1ccc(Cl)cc1)c1ccc(OCC2CCCO2)cc1 (centres undefined)	2%	x	-13	0.8	-4
CCc1cc2c(=O)c(-c3nc(C)cs3)coc2cc1O	9%	x	1	-1.1	x
CC(C)(C)c1cc(/C=N/O)cc(C(C)(C)C)c1O	4%	-7	0	-2.2	17
Cc1ccc(S(=O)(=O)N2CCCC2C(=O)NCc2ccncc2)cc1 (centres undefined)	x	x	-17	-0.4	x
CCOC(=O)Cc1cc(=O)c2c(=O)n(-c3ccccc3)[nH]c2[nH]1	-7%	-41	-1	-6.3	7
